HNF4A DNA FP – change in binding of human HNF4A to DNA, primary screen, biochemical, fluorescence polarization, FITC-DNA | hit rate 0.3% among 360,000 | 1 h | activity change, % at 10 µM; in the data active means activity change above about 30%, passing the limit was not always enough;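 further: controls were the assay level and a saturating level of protein; the project sought stronger binding though the title names inhibitors; some compounds called inactive have numbers as strong as hits; positive values seem to mean higher polarization but the record does not say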
Target sequence (P41235 whole entry, looked up): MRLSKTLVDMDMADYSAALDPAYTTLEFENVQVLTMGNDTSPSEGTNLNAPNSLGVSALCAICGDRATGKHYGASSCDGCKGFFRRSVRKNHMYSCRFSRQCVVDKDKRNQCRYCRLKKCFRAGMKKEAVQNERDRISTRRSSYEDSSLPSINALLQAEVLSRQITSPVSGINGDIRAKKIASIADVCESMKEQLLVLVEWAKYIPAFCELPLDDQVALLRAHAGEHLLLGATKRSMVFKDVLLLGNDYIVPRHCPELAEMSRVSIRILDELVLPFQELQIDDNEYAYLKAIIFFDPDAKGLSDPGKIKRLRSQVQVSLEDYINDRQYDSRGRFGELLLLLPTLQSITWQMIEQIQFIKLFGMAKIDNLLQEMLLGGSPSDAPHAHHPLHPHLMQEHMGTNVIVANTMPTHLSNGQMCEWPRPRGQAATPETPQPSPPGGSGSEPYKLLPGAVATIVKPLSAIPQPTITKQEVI
ALR inh – inhibitors of human ALR sulfhydryl oxidase, primary screen, biochemical, H2O2 detection, HRP-luminol luminescence, single point; purified ALR, DTT oxidation; inhibition, % (concentration not given with the values); hit rate 3.8% among 290,000; AID 485317, 2010;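 active means mean and each replicate at 75% or more; inconclusive means only one of the two met; inactive means neither met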;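 further: stock transfer was 7.5 nL into about 7.5 µL; 0% = neutral wells and 100% = wells with inactivated enzyme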
Target sequence (P55789 whole entry, looked up): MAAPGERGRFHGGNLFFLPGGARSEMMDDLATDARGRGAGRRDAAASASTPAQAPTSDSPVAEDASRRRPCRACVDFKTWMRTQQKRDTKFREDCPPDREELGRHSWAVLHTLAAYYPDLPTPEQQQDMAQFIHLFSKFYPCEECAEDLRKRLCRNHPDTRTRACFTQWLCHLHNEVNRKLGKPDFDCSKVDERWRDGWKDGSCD
LANA-H2B inh – blockers of LANA interaction with H2A/H2B – biochemical, FP readout, HTS, primary screen; hit rate 0.6% among 320,000; Protein LANA1 (Human herpesvirus 8 type P (isolate GK18)), Q9QR71; cell-free LANA-H2A/H2B peptide, fluorescence polarization; inhibition, % (concentration not given with the values); in the data active means inhibition mostly above about 10%, no sharp cut-off; inactive means mostly below about 6.7%;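 further: stock transfer was 7.5 nL into about 10 µL; 0% = median of vehicle wells and 100% = median of positive control wells; one replicate is shown; the record names a cut of 25% in any replicate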
Beta2AR agonist – beta2AR agonists driving receptor internalization, primary screen, cell-based, FAP fluorogen, flow cytometry. Beta-2 adrenergic receptor (Homo sapiens), P07550. Am2.2-beta2AR cells; reference of the scale not given here. response, % (concentration not given with the values). hit rate 0.43% among 340,000;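 active means response above a set limit, near 3 SD of response in nonfluorescent compounds, cut at about 42% in these data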;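 further: stock transfer was 100 nL into about 11 µL; a reference agonist was the positive control; negative values mostly stem from fluorescent compounds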
RanGTP-Imp inh – inhibitors of RanGTP-importin-beta interaction, primary screen, biochemical, FRET, CFP-Ran, YFP-importin-beta, homogeneous. Ran GTPase (GTP-bound) - importin-beta complex. cell-free CFP-Ran/YFP-importin-beta FRET ratio. inhibition, % (test concentration not listed). hit rate 1.1% among 300,000. AID 2216, 2009;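 active means most replicates above 15%; inconclusive means exactly half above 15%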;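 further: 0% = DMSO wells and 100% = Ran loaded with GDP instead of GTP; wells of about 40 µL received 100 nL stock; the first replicate is given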
Vif TR-FRET – inhibitors of Vif binding to APOBEC3G peptide, primary screen, biochemical, TR-FRET, GST-Vif 1-94, biotin-A3G peptide, dose response retest (AID 1117319); Virion infectivity factor (Human immunodeficiency virus type 1 group M subtype B (isolate …; TR-FRET GST-Vif / biotin-A3G peptide binding; higher % means a stronger effect; test concentration not given here; strong numbers were not always called active; one-dose inhibition, %; IC50 in µM for titrated hits; hit rate 0.57% among 260,000;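 active means above the screen mean plus three standard deviations and confirmed in dose response; inconclusive means results disagree or hit not tested in dose response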;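 further: Vif residues 1-94 fused to GST binding biotinylated APOBEC3G peptide 110-148; 0% = full assay without inhibitor and 100% = GST in place of GST-Vif; retest series ran down from 100 µM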
Calb FLC – C. albicans growth inhibition with fluconazole, primary screen, CaCi-2 strain, Alamar Blue fluorescence. C. albicans CaCi-2 (fluconazole-resistant clinical isolate) + fluconazole, 48 h. hit rate 0.57% among 300,000. growth inhibition, % (no concentration beside the values);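 active means most replicates above 75%; inconclusive means exactly half above 75%; inactive means most below 75%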;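 further: all wells also contain fluconazole at 8 µg/ml as a sub-toxic cotreatment; 0% = median of DMSO wells and 100% = median of geldanamycin control wells; wells of about 8 µL received 7.5 nL stock; the first replicate is given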
* marks the source's active call; other numbers are inactive results; ? = inconclusive; . = not tested or not shown. Outcome played no part in choosing rows. Share with any hit: about 6.3%.

SMILES | HNF4A DNA FP | ALR inh | LANA-H2B inh | Beta2AR agonist | RanGTP-Imp inh | Vif TR-FRET | Calb FLC
O=C(O)/C(=C\c1ccc(Cl)c([N+](=O)[O-])c1)c1ccc(S(=O)(=O)N2CCCCC2)s1 | -3.2 | -4 | -1.1 | -17 | -2.0 | -7% | 0
O=C(c1ccccc1O)N1N=C(c2ccccc2)CC1(O)C(F)(F)F (centres undefined) | 0.6 | 1 | -3.2 | -2 | -1.0 | . | -4
O=C(Nc1cc(Cl)ccc1Cl)c1ccc(-c2ccccc2)cc1 | -1.5 | . | -6.4 | 3 | -3.6 | . | -6
Cc1cc(C(=O)COC(=O)c2cccc(O)c2)c(C)n1C1CC1 | -4.0 | 4 | -3.3 | 1 | . | -3% | .
CCCCC(CC(O)COCC(C)C)C(=O)NNC(=S)Nc1ccccc1 (centres undefined) | 7.7 | 4 | -6.7 | -6 | 2.2 | -10% | 39
Cc1cc(OCC(O)CN2CCCC2)cc(C)c1Cl (centres undefined) | 0.4 | -20 | -3.0 | 1 | -2.4 | -1% | 0
CCCCN(C)CCNC(=O)c1cc2c(=O)[nH]c3ccccc3c2n1C | -0.1 | -3 | -6.3 | -23 | -4.9 | 1% | -3
COc1cccc(C=Nc2cccc3c(=O)[nH][nH]c(=O)c23)c1O | 9.2 | -2 | -17 | 6 | -1.5 | -6% | 2
COCCNC(=S)N/N=C/c1ccc(-c2ccc([N+](=O)[O-])cc2)o1 | 20 | 11 | -2.9 | 4 | -53 | 23% | 15
O=C(/C=C/c1cccs1)Nc1ccc(Br)cn1 | 1.6 | 1 | -1.4 | 13 | 0.2 | 10µM* | -15
CN1CCN(CC(=O)N2c3ccccc3C(C)(c3ccccc3)CC2(C)C)CC1 (centres undefined) | -0.2 | -11 | 5.3 | 8 | 0.2 | 7% | -9
CCCCCC(=O)N=Nc1c(O)[nH]c2ccc([N+](=O)[O-])cc12 | -2.8 | -8 | 0.9 | -2 | 6.3 | 4% | -8
CNS(=O)(=O)c1cccc(C(=O)OC2CCOC2=O)c1 (centres undefined) | -1.4 | . | 12 | -3 | -2.0 | . | 2
CCC1(c2ccc(C)cc2)NC(=O)N(C(C)C(=O)Nc2ccc(N3CCOCC3)cc2)C1=O (centres undefined) | 0.6 | . | -7.0 | 1 | . | . | .
Cc1nn(CCC(=O)NNC(=S)Nc2cccc(Cl)c2)c(C)c1[N+](=O)[O-] | 2.6 | 14 | 0.8 | -4 | 0.3 | . | -17
COc1ccc(Cc2nnc(SC(C)C(=O)Nc3ccc(C(N)=O)cc3)o2)cc1 (centres undefined) | 3.6 | 0 | -4.9 | -8 | 0.7 | -4% | -11
NC(=O)CN1C(=O)C(O)(CC(=O)c2ccccc2O)c2ccccc21 (centres undefined) | -1.8 | ? | 2.9 | -3 | ? | 8% | 4
Cc1cccc(Nc2cc(=O)[nH]c(=O)[nH]2)c1C | -2.2 | -2 | 0.6 | 10 | -0.9 | 7% | 26
COc1ccc(C)cc1NC(=O)CN1CCN(c2ccccn2)CC1 | 4.4 | . | -2.5 | -1 | -0.8 | -5% | -1
CN(C(=O)CSc1nc2cc(C(=O)O)ccc2c(=O)n1Cc1ccccc1)C1CCS(=O)(=O)C1 (centres undefined) | -1.5 | -5 | 7.9 | -12 | 3.5 | 2% | -16
COc1ccc(NC(=O)COc2nc(N(C)C)nc(N(C)C)n2)cc1 | -0.2 | 1 | -2.3 | 3 | -1.8 | 31% | -5
Cc1ccc(C)c(S(=O)(=O)N2CCN(C(C)C(=O)Nc3ccccc3-c3ccccc3)CC2)c1 (centres undefined) | 1.2 | -11 | -0.4 | 37 | 2.2 | 6% | -5
CSCc1ccc(C(=O)NC(C)c2ccc(-n3ccnc3)cc2)cc1 (centres undefined) | 0.0 | 98* | 6.3 | 5 | -2.2 | . | 7
COc1ccc(NC(=O)c2oc3ccccc3c2NC(=O)C2CCCO2)cc1OC (centres undefined) | -1.7 | -3 | 1.4 | 12 | 0.1 | -6% | -5
CCCCCn1cnc2c(sc3nc4c(cc32)CSC(C)(C)C4)c1=O | -1.9 | -3 | -1.4 | -13 | -3.6 | -11% | -3
O=c1sc(N2CCN(c3ccc(F)cc3)CC2)nc2ccsc12 | 3.7 | . | 2.5 | -13 | ? | -1% | 2
CCCS(=O)(=O)N1CCC(C(=O)NCCCOC(C)C)CC1 | 2.9 | -5 | -6.5 | 15 | -0.8 | 19% | 9
O=C(Nc1ccccn1)c1ccco1 | -0.6 | -4 | 1.1 | -14 | -5.9 | -7% | -7
Nc1c(-c2ccccc2)cnn1-c1cccc([N+](=O)[O-])c1 | 1.3 | 88* | 1.4 | 1 | 1.3 | 1% | -18
O=C(Nc1ccc(F)c(F)c1)C1CCCN(S(=O)(=O)c2cnc[nH]2)C1 (centres undefined) | 3.4 | . | 1.6 | -5 | 4.1 | . | -1
CC1CN(c2ccc([N+](=O)[O-])c(NCCOc3ccccc3)c2)CCN1 (centres undefined) | -0.6 | -1 | 4.5 | 15 | 0.6 | 7% | -6
CC(=O)C(C(C)=O)C(c1ccccc1)c1nc2ccccc2[nH]c1=O (centres undefined) | -0.1 | 2 | 2.1 | -8 | -3.9 | -2% | -1
Cc1ccc(Nc2nc(N)c([N+](=O)[O-])c(N3CCOCC3)n2)cc1 | 0.4 | . | 5.9 | -4 | -3.4 | . | -6
O=C(N/N=C/c1ccc([N+](=O)[O-])cc1)c1ccccc1OCc1ccccc1 | 3.4 | -1 | 2.7 | -1 | 8.7 | 6% | -5
COc1cc(OC)c(C(=O)OCC(=O)NCCC2=CCCCC2)cc1OC | 5.0 | . | 4.9 | -10 | 12 | 6% | -3
COC(=O)Cn1nc(C)c2ccccc2c1=O | -5.5 | 4 | 0.5 | 2 | 5.7 | . | 1
CCCCn1c(=O)c(CCC(=O)OCC(=O)NC(=O)NCCOC)nc2ccccc21 | -2.1 | -4 | 2.1 | -3 | -0.8 | 4% | 29
CCn1c(CCNC(=O)c2ccc(OC)c(OC)c2)nc2ccccc21 | -3.3 | . | -2.2 | -13 | 3.0 | 16% | 7
CCCN(CC(=O)Nc1ccccc1C)C(=O)c1ccc(OCc2c(C)noc2C)cc1 | -3.5 | . | . | -5 | . | 5% | .
COc1ccc(CNC2CCCCC2)cc1 | -0.9 | -5 | 1.7 | -1 | 2.9 | -2% | -22
CCSc1cc(C)nc2c(-c3ccccc3)cnn12 | -0.7 | -11 | 0.0 | -7 | 0.5 | ? | 8
Cc1nnc(NS(=O)(=O)c2ccc(Br)cc2)s1 | -0.1 | 7 | 3.5 | 1 | ? | . | -5
Cc1ccccc1OCC(=O)NS(=O)(=O)c1ccc(Cl)cc1 | -3.3 | 2 | -1.4 | -1 | . | . | .
O=C(c1nc2ccccn2c1CN1CCCC(c2nc3ccccc3o2)C1)N1CCCC1 (centres undefined) | -0.6 | -3 | 6.0 | 0 | 2.0 | 21% | -11
COc1ccc(N2CCN(C(=O)CSc3nnc(C)c(=O)[nH]3)CC2)cc1 | -0.3 | 42 | 2.1 | 3 | 6.9 | 12% | -1
COC(=O)Nc1ccccc1C(=O)N1CCC(O)(c2ccc(Cl)cc2)CC1 | -2.2 | 1 | -3.0 | 4 | 24 | 22% | 3
COC(=O)C1=C(C(=O)OC)[C@@H]2N(Cc3ccccc3)c3ccccc3[C@@]23C[C@@H](C(=O)OC)N(C(=O)COCc2ccccc2)C3=N1 | -4.9 | 2 | -3.0 | 1 | 0.9 | 4% | 6
CCN1CCN(C(=S)Nc2cc(S(=O)(=O)N(CC)CC)ccc2C)CC1 | 1.5 | -9 | -3.6 | -4 | -2.7 | 2% | -37
Cc1nc2ccccc2c2c(N)cccc12 | 1.2 | . | . | -13 | . | -9% | .
COc1ccc(CCCC(=O)N/N=C/c2ccccc2OC)cc1 | 4.6 | . | 2.5 | 0 | 0.8 | -1% | -15
O=C(CNC(=O)c1ccc(-c2ccccc2)cc1)OCc1ccc(Br)cc1 | 3.8 | . | . | -1 | 7.4 | . | 4
Cc1cc2nc3n(c2cc1C)CC1CC(C(=O)NCC2CC2)N(C)C31 (centres undefined) | 2.1 | . | 2.6 | 3 | -3.0 | 5% | 5
Cc1ccc(C(=O)NC(=S)N2CCN(c3ccccc3F)CC2)cc1 | 1.7 | -10 | -3.2 | 5 | 7.8 | -3% | 7
COc1ccc(-c2nn(-c3ccccc3)cc2/C=N/O)cc1OC | -3.6 | 38 | -2.8 | 11 | ? | 6% | -8
O=C(NCc1ccccn1)c1ccc(Cl)c(S(=O)(=O)N2CCOCC2)c1 | -0.5 | -8 | -2.8 | -3 | 0.7 | 1% | 0
CC(C(=O)Nc1ccc(C#N)cc1)N(C)CC(=O)N(C)c1c(N)n(Cc2ccccc2)c(=O)[nH]c1=O (centres undefined) | 0.9 | -2 | 3.6 | -1 | . | -8% | .
O=C(NC1CCCCC1)c1cc([N+](=O)[O-])ccc1N1CCCCC1 | 0.0 | -4 | -1.9 | 5 | -2.7 | -1% | -8
O=C(COc1ccccc1Cl)NCCNC(=O)c1cnccn1 | 0.1 | -4 | 1.7 | 2 | 0.6 | . | -3
O=C(Nc1ccccc1)c1ccccc1NC(=O)c1ccccc1[N+](=O)[O-] | 2.3 | -3 | -0.7 | -1 | -0.8 | . | 8
C=CCn1c(-c2ccc(Cl)cc2)ccc(C#N)c1=O | -3.5 | 2 | 1.4 | -2 | 3.6 | 1% | 15
O=C(NCC1OCCc2ccccc21)c1ccc(NC(=O)c2ccccc2Cl)cc1 (centres undefined) | 0.3 | . | . | -4 | 2.8 | 4% | 35

For reference, nine of the compounds above:
SMILES | HNF4A DNA FP | ALR inh | LANA-H2B inh | Beta2AR agonist | RanGTP-Imp inh | Vif TR-FRET | Calb FLC
CCSc1cc(C)nc2c(-c3ccccc3)cnn12 | -0.7 | -11 | 0.0 | -7 | 0.5 | ? | 8
Cc1nnc(NS(=O)(=O)c2ccc(Br)cc2)s1 | -0.1 | 7 | 3.5 | 1 | ? | . | -5
Cc1ccccc1OCC(=O)NS(=O)(=O)c1ccc(Cl)cc1 | -3.3 | 2 | -1.4 | -1 | . | . | .
O=C(c1nc2ccccn2c1CN1CCCC(c2nc3ccccc3o2)C1)N1CCCC1 (centres undefined) | -0.6 | -3 | 6.0 | 0 | 2.0 | 21% | -11
COc1ccc(N2CCN(C(=O)CSc3nnc(C)c(=O)[nH]3)CC2)cc1 | -0.3 | 42 | 2.1 | 3 | 6.9 | 12% | -1
COC(=O)Nc1ccccc1C(=O)N1CCC(O)(c2ccc(Cl)cc2)CC1 | -2.2 | 1 | -3.0 | 4 | 24 | 22% | 3
COC(=O)C1=C(C(=O)OC)[C@@H]2N(Cc3ccccc3)c3ccccc3[C@@]23C[C@@H](C(=O)OC)N(C(=O)COCc2ccccc2)C3=N1 | -4.9 | 2 | -3.0 | 1 | 0.9 | 4% | 6
CCN1CCN(C(=S)Nc2cc(S(=O)(=O)N(CC)CC)ccc2C)CC1 | 1.5 | -9 | -3.6 | -4 | -2.7 | 2% | -37
Cc1nc2ccccc2c2c(N)cccc12 | 1.2 | . | . | -13 | . | -9% | .

From PubChem BioAssay
